Menin-MLL FL inh: qHTS Assay for Inhibitors Targeting the Menin-MLL Interaction in MLL Related Leukemias: Competition With Fluorescein Labeled MLL-derived Peptide; Fluorescence polarization, fluorescein-MLL peptide displacement from menin; FP activity change, % at 61.4 µM; 290,000 tested, under 10 active; AID 1766, 2009; inconclusive = falling polarisation curve, or a change in total fluorescence; inactive = total fluorescence flat and polarisation flat or rising; no compound was filed as active; the % refers to the polarisation; negative = inhibition;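 also: % of control where 0% means no effect; inhibitors lower the polarisation; unlabelled MLL peptide was the positive control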
TRPV1 PAM: HTS Assay for Compounds that Act as Potentiators of the Vanilloid Receptor 1. TRPV1-expressing cells, Fluo-8 calcium influx, capsaicin EC20 potentiation; host cell line not named in the record; control for the full effect not named in the record. potentiation, % at 8.33 µM. actives 0.02% (n = 320,000); active means potentiation above 80%; inconclusive means 30% to 80%; inactive means below 30%; also: 0% is about no effect
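Cells expressing TRPV1 were dye-loaded with Fluo-8 and read kinetically: 10 s baseline, 3 min after compound (agonist portion), then 2 min after EC20 capsaicin (allosteric enhancer portion). Calcium-bound dye fluorescence at 480/520 nm.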
gsp antag: qHTS for Antagonists of gsp, the Etiologic Mutation Responsible for Fibrous Dysplasia/McCune-Albright Syndrome: qHTS | gsp-mutant cells, cAMP HTRF, 30 min; control for the full effect not named in the record | actives 0.4% (n = 340,000) | Potency, µM (titrated, usually from 76.9 µM), for the others: at the top dose activity change, negative = inhibition, most hits filed as inhibitors; active = falling curve of any shape with a large fitted effect; inconclusive = falling curve, mostly with a smaller effect; inactive = flat or rising curve; cell line not stated here;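 also: intracellular cAMP measured with PDE inhibitor Ro 20-1724 present during compound exposure; potency is read from the fitted curve at half-maximal effect; % is scaled to controls: 0 for no effect and ±100 for the full control effect; nearly all actives have a fitted effect of over 65% in size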
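HTRF cAMP read-out (cAMP-d2 plus anti-cAMP antibody-K in lysis buffer, 30 min RT). Before lysis, cells are exposed to compounds with […] for 30 min at 37C in DPBS containing Ca/Mg, BSA and Tween 20.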
TRPML1 inh: qHTS for Inhibitors of the Human Mucolipin Transient Receptor Potential 1 (TRPML1); activity change, negative = inhibition, % (test concentration not listed); actives 0.02% (n = 390,000); Mucolipin-1 (Homo sapiens), Q9GZU1; TRPML1-inducible cells, Ca2+ dye fluorescence, FDSS; active compounds read low; inhibition of EC80 agonist-evoked calcium signal; AID 624415, 2012; in the data active means activity change below about -50%; inconclusive means about -30% to -50%; inactive means above about -30%;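 also: stimulus is agonist 54-4 at its EC80 concentration; % is scaled to controls: 0 for no effect and ±100 for the full control effect; compound concentration not given in the record; the text of the record puts the active cut at -80%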
Target sequence (Q9GZU1 whole entry, looked up): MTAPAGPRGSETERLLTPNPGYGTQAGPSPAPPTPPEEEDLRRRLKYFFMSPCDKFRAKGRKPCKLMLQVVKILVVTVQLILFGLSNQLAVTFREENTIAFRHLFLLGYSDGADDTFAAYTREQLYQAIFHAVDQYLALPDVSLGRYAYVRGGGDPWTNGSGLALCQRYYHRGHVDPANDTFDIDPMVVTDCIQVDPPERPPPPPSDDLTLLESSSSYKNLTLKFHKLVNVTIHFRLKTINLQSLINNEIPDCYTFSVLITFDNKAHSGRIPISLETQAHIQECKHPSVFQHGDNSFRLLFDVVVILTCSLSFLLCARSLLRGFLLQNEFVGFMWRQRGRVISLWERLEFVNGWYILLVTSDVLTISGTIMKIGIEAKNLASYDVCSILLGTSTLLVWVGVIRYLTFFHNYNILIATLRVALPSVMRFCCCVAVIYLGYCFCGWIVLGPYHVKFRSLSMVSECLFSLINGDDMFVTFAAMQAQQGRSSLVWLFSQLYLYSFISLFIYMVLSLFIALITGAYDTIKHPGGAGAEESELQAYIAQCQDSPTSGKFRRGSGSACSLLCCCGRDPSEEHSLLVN
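Calcium fluorescence in TRPML1-DL cells induced overnight with Tet: a 110 s read after compound pin addition, then a 110 s antagonist read after challenge with 54-4 at 4 uM final (EC80).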
Sfp PPTase inh: qHTS Assay for Inhibitors of Bacillus subtilis Sfp phosphopantetheinyl transferase (PPTase) | 4'-phosphopantetheinyl transferase ffp (Bacillus subtilis), Q9F4F7 | Biochemical Sfp PPTase activity, qHTS | Potency, µM, for the others: max response, negative = inhibition, most hits filed as inhibitors | actives 3.5% (n = 310,000) | AID 1490, 2009; active = well fitted inhibition curve with a large enough effect; inconclusive = small, poorly fitted or top-dose-only effect, or another doubt; inactive = no such curve, though single readings can be large or run the other way;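 also: the enzyme is Sfp with the accession as filed and its product quenches rhodamine fluorescence; potency is read from the fitted curve at half-maximal effect; 0% = enzyme reaction without inhibitor and -100% = no enzyme wells; top concentration of the series not given in the record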
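Fluorescence-quenching assay with 15 nM Sfp, 5 uM rhodamine-CoA and 12.5 uM BHQ-2-labelled ybbR peptide in pH 7.6 Hepes/MgCl2 buffer. Enzyme was pre-incubated with compound for 15 min at room temperature. Rate was taken from the 30-min fluorescence change (525/598 nm).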
ClpP mod: qHTS Assay for Activators of ClpP; ATP-dependent Clp protease proteolytic subunit (Bacillus subtilis (strain 168)), P80244; AID 651965, 2013; purified B. subtilis ClpP, FRET peptide cleavage, 20 min; Potency, µM (highest dose often 57.5 µM), for inactives: at the highest dose activity change, negative = active; actives 1.9% (n = 340,000); active = well fitted falling curve with a large enough effect; inconclusive = small, poorly fitted or top-dose-only effect; inactive = no such curve, though single readings can be large or run the other way; also: potency is read from the fitted curve at half-maximal effect; the source files actives as falling curves though it sought activators and does not explain the sign; nearly all actives have a fitted effect of over 65% in size; many hits overshoot -100%
Target sequence (P80244 whole entry, looked up): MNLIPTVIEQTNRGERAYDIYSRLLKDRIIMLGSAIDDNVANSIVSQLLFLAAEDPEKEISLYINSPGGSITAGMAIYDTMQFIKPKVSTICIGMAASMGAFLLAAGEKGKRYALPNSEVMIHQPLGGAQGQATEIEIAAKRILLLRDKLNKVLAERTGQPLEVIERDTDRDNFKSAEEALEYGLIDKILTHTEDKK
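FRET quenching reversal measured ClpP activation: 10 microg/mL B. subtilis ClpP at pH 8 with the FRET-FV decapeptide, read at 430 nm after 320 nm excitation. The 20-min minus 0-min signal was scaled between DMSO/no-enzyme wells and ADEP (5.8 microM final).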
gsp agonist: qHTS for Agonist of gsp, the Etiologic Mutation Responsible for Fibrous Dysplasia/McCune-Albright Syndrome: qHTS; AID 624287, 2012; Potency, µM (top dose mostly 76.9 µM), inactives show top-dose activation (cAMP increase), hits mostly activators; gsp mutant cells, cAMP HTRF, 30 min; control for the full effect not named in the record; actives 0.13% (n = 340,000); active = well fitted activation curve with a large enough effect; inconclusive = small, poorly fitted or top-dose-only effect, or another doubt; inactive = no such curve, though single readings can be large or run the other way; cell line not stated here;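 also: phosphodiesterase inhibitor Ro 20-1724 added with compounds to block cAMP breakdown; potency is read from the fitted curve at half-maximal effect; nearly all actives have a fitted effect of over 60% in size; about a fifth of the inactives were tested at one dose only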
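Cells in DMEM/10% FBS with G418 were pretreated with compounds in DMSO plus […] (300 uM stock) for 30 min at 37C. cAMP was measured by HTRF (cAMP-d2 plus anti-cAMP antibody-K) after 30 min at room temperature.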
* hit, by the source's call; ? = inconclusive; . = no result given; & = joins results of further samples; [ ] = remark or other dose.

SMILES	Menin-MLL FL inh	TRPV1 PAM	gsp antag	TRPML1 inh	Sfp PPTase inh	ClpP mod	gsp agonist
C=CCN1C(=O)c2cccc3c(Br)ccc(c23)C1=O	0.7	11	-3%	11	7%	.	?
CN1/C(=C\C(=O)COC(=O)c2ccc(O)cc2)C(C)(C)c2ccccc21	14	-10	?	2	-4%	-21%	2%
O=C(O)CSc1nc2ccc(NC(=O)COc3ccc(Cl)cc3)cc2s1	.	6	.	-9	.	-8.7%	.
COc1cc(-c2nc3ccc(C)cn3c2NCc2ccccc2)ccc1-c1cccc(Cl)c1	.	.	-3%	32	.	4.2%	.
CC(=NNc1nc2ccccc2s1)c1ccncn1	.	.	12%	-10	.	-2.3%	2%
O=C(Nc1nnc(C2CCCCC2)s1)C1CC(=O)N(c2ccccc2)C1 (stereo not given)	2.1	11	-3%	34	6%	0.6%	1%[15.4 µM]
COc1ccc(OC2C(=O)N(CCc3ccc(OC)c(OC)c3)C2c2ccc3c(c2)OCO3)cc1 (stereo not given)	2.9	-1	-25%	-9	16%	-3.2%	-3%
COc1cccc2[nH]c3c(N4CCC(C(N)=O)CC4)ncnc3c12	3.9	-10	7%	-11	15%	?	11%
COc1ccc(NC(=O)/C=C/c2ccccc2)cn1	-14	-2	-8%	1	10%	0.6%	-1%[15.4 µM]
CCCc1nnc(SCC(=O)N2CCOCC2)n1CCCOC	0.1	-2	16%	-11	-1%	-2.0%	-24%
Cc1ccc(C(c2nnnn2Cc2cccs2)N2CCN(Cc3ccc4c(c3)OCO4)CC2)cc1 (stereo not given)	2.7	16	-9%	3	5%	-1.2%	1%
CC(=O)O[C@H]1C(=O)[C@@]2(C)[C@H]([C@H](OC(=O)c3ccccc3)[C@]3(O)C[C@H](OC(=O)[C@H](O)C(NC(=O)c4ccccc4)c4ccccc4)C(C)=C1C3(C)C)[C@]1(OC(C)=O)CO[C@@H]1C[C@@H]2O (stereo not given in full)	0.4	0	-10%	0	10µM*	0.0%	.
CCOC(=O)CSc1nnc(NC(=O)CCc2ccccc2)s1	1.1	3	-7%	1	15%	-2.3%	-77%[inhibitor]
COc1cccc(OCc2cc(C(=O)N3CCN(C(=O)c4ccco4)CC3)no2)c1	6.9	-19	-5%	-9	11%	-1.1%	37%
O=C(CSc1nnc(NC(=O)C2CC2)s1)Nc1ccc2c(c1)OCCO2	-2.4	9	0%	14	-7%	1.0%	-8%[15.4 µM]
CCOC(CNC(=O)C1CCN(S(=O)(=O)c2ccc3nc4c(c(C(=O)O)c3c2)CCCCC4)CC1)OCC	.	0	2%	12	14%	-1.1%	6%
O=C(/C=C/c1cccnc1)c1ccc(NC(=O)c2cccc(Br)c2)cc1	-0.4	9	-1%	3	13%	-0.2%	-52%[inhibitor]
NC(=O)C1CCN(C(=O)c2ccccc2CCc2ccccc2)CC1	-2.0	-52	6%	-9	20%	.	-4%
COc1ccc(C2SCC(=O)N2c2ccc(OC)cc2)cc1 (stereo not given)	-1.1	-2	0%	34	8%	-1.2%	3%
O=C(CCS(=O)(=O)c1ccc2c(c1)NC(=O)CS2)NCc1ccccc1Cl	-3.4	4	-1%	18	12%	0.0%	-7%
Cc1ccc(C(=O)N/C(=C\c2ccco2)C(=O)N2CCCCC2)cc1	8.7	-3	-8%	9	0%	.	12%
Cc1ccc2cc(C#N)c(SCC(=O)N3CCCC3)nc2c1	2.4	1	-7%	33	0%	.	11%[15.4 µM]
COC(=O)/C=C/C(=O)N1CCN(c2cccc(Cl)c2)CC1	3.0	-33	.	.	-16%	.	.
CCn1c(CNc2ccc(Cl)cc2)nnc1SCC(=O)NCc1ccccc1	4.8	-2	-10%	10	4%	1.0%	8%
Cc1ccc(NC(=O)NC(=O)CN2C(=O)NC3(CCCCCCC3)C2=O)c(C)c1	-5.4	-4	0%	-4	3%	0.4%	-8%
CSc1nc2nc(C)cc(-c3ccccc3)n2n1	3.5	-24	15%	-3	-2%	?	21%
O=C(NCc1ccccc1CN1CCCC1)c1cccc(S(=O)(=O)Nc2ccc(F)cc2)c1	.	-3	-2%	-6	.	-1.2%	9%
Cc1cc(C)cc(C(=O)NC(CC(N)=O)c2ccc(NCCN3CCOCC3)c([N+](=O)[O-])c2)c1 (stereo not given)	1.9	-3	5%	-6	15%	0.2%	.
Cc1cccc(N2CC(C(=O)Nc3nnc(SCCC4OCCO4)s3)CC2=O)c1 (stereo not given)	5.8	-2	-26%	?	-25%	-1.0%	-26%
COc1ccc(OC)c(CN2CCC(CO)(CCOc3ccccc3)CC2)c1	-1.3	4	3%	2	11%	.	5%
N#CCSc1nnc(C2CCCCC2)n1-c1ccccc1	-0.1	3	-3%	5	17%	-0.6%	?
O=C(O)COc1ccccc1/C=N/NC(=O)COc1ccc(-c2ccccc2)cc1	3.6	5	-21%	-2	-2%	.	7%[15.4 µM]
O=[N+]([O-])c1ccc2nc(-c3ccc(Cl)cc3)[nH]c2c1	1.0	-18	35µM*	25	0.35µM*	-18%	-5%
O=C(CCN=C1NS(=O)(=O)c2ccccc21)OCc1c(F)c(F)c(F)c(F)c1F	.	-3	7%	2	.	-7.0%	-12%
Cc1noc(C)c1C(=O)N1CCN(c2cccc(Cl)c2)CC1	-1.4	-11	3%	-16	32%[activator]	.	4%[15.4 µM]
Cc1cccn2c(CNCC3(c4ccccc4)CCCC3)c(C(=O)N3CCOCC3)nc12	1.8	12	-9%	-9	3%	.	-4%
Cc1nn2c(-c3cccc(NC(=O)CN4CCOCC4)c3)nnc2c2ccccc12	.	.	7%	6	.	-5.5%	?
Cc1ccc(C2=[N+]([O-])C3(CCCCC3=O)N(O)C2(C)C)cc1 (stereo not given)	3.5	1	4%	2	11%	1.8%	11%
CSc1nc2ccc(NC(=O)c3ccccn3)cc2s1	-3.9	-7	-9%	-6	1%	.	4%[15.4 µM]
O=C(O)CN1C(=O)c2cccc(Oc3ccc(Cl)cc3)c2C1=O	2.0	-14	-12%	40	25%	0.4%	-32%[inhibitor]
CCNc1nc(NOC)nc(OCC#N)n1	1.5	-20	2%	-4	-3%	-3.0%	0%
S=C(Nc1ccc(Cl)cc1)NC1CC2CCCC(C1)N2C1CC1 (stereo not given)	0.1	0	6%	-6	-8%	0.0%	-8%
CCCCn1c(N)c(N(CCC(C)C)C(=O)c2ccc([N+](=O)[O-])o2)c(=O)[nH]c1=O	.	8	5%	-7	-5%	3.2µM*	-6%
CC(OC(=O)c1nc(Cl)ccc1Cl)C(=O)Nc1ccccc1F (stereo not given)	.	9	-1%	5	.	.	11%[15.4 µM]
CC1(C(=O)N(CC(=O)NC2CCCC2)C2CCCC2)CC(=O)N=C2C=CC=CN21 (stereo not given)	3.8	9	5%	21	-3%	?	7%
COc1ccc(N=Nc2ccc(CO)cc2)cc1	.	.	-4%	11	.	0.6%	-15%[15.4 µM]
Cn1c(C(=O)N2CCc3ccccc3C2)cc2c(=O)n3ccccc3nc21	2.2	-7	-2%	-1	-2%	?	?
O=[N+]([O-])c1ccc(S(=O)(=O)N2CCN(C3CCN(Cc4ccccc4)CC3)CC2)cc1	.	-3	20%	-22	-45%	.	-6%[15.4 µM]
O=C(O)C1Oc2cc3ccccc3cc2O1	0.3	5	7%	-2	17%	-0.3%	9%
COc1ccc(C)cc1NS(=O)(=O)c1ccc(-c2cnc(C3CC3)o2)cc1	.	5	15%	1&-21	3%	1.8%&-0.8%	28%
Cc1cccc(NC(=O)C(=O)C2C(=O)Nc3ccccc32)c1 (stereo not given)	-0.4	?	-9%	9	13%	.	-13%[15.4 µM]
OC1C=CSc2nc3ccccc3n21 (stereo not given)	-0.4	4	0%	-9	12%	?	-6%
COC(=O)c1nc2ccc(C)cn2c1F	-0.3	0	7%	-10	14%	5.4%	?
Cc1cccc(N2CCN(c3ccc(NC(=O)/C=C\C(=O)O)cc3)CC2)c1	3.1	5	-2%	9	?	.	10%[15.4 µM]
Cc1ccccc1-c1noc(N)c1C#N	8.7	1	14%	-25	-3%	-0.4%	27%
COc1ccc(NC(=O)CNC(=O)Cn2c(C)cc3ccccc3c2=O)cc1OC	-1.2	1	-24%	-13&6	-11%	-19%	-20%[15.4 µM]
Cc1cc(/C=C(\C#N)C(=O)OCC(=O)N(C)c2c(N)n(Cc3ccccc3)c(=O)[nH]c2=O)c(C)n1CC(C)C	.	.	.	0	.	-0.1%	?
COc1c(Cl)cnn(-c2ccc(Cl)c(Cl)c2)c1=O	-2.1	6	-17%	-14	17%	.	1%
Cn1c(Cn2nnc3ccccc32)nnc1SCC(=O)c1ccc(F)cc1	1.6	3	5%	-4	?	0.9%	-2%
O=C1c2cc3c(cc2CCC1c1ccc2c(c1)OCO2)OCO3 (stereo not given)	.	.	.	10	.	-9.1%	?
CC1CCC(NC(=O)C2CCN(C(=O)Nc3ccccc3)CC2)CC1 (stereo not given)	.	8	8%	-23	.	-2.7%	22%
CCCCNC(=O)CN1C(=O)NC2(CCCc3ccccc32)C1=O (stereo not given)	0.0	10	6%	12	3%	-2.0%	1%
Cc1ccccc1NC(=O)N1CCN(c2ncccn2)CC1	0.0	4	16%	-5	17%	-2.4%	?
